Screening data (PubChem BioAssay)
AF4-AF9 inh = inhibitors of AF4 peptide binding to AF9, primary screen, biochemical, AlphaScreen, biotin-AF4 peptide, FLAG-AF9, single point; Protein AF-9 (Homo sapiens), P42568; inhibition, % at 10 µM; 0.47% of 350,000 active;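 active = every replicate reaching a set inhibition limit, whatever the replicate mean, cut at about 25% in these data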;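 also: 0% = plate neutral control median and 100% = total signal loss; the record names both 10 and 1 µM as test concentration; the first replicate is given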
Target sequence (P42568 whole entry, looked up): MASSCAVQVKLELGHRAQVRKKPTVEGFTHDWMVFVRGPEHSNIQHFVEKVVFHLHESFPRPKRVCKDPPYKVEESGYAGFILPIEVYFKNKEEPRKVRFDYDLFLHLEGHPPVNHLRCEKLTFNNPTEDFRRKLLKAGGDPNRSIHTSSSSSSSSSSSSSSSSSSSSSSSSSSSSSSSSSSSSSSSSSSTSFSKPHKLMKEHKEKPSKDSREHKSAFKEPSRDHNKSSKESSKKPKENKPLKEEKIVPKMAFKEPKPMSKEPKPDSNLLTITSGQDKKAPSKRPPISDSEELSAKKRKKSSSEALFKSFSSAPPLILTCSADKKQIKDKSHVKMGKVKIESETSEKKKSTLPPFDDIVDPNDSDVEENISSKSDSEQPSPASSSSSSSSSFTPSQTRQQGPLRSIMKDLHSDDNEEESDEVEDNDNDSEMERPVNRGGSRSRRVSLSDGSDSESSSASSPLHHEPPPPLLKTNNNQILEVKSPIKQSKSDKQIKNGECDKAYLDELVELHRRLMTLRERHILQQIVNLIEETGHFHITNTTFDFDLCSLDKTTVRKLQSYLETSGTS
rRNA inh HTS = reduced GFP signal of wild-type E. coli, primary screen, bacterial rRNA inhibitor project, GFP/RFP fluorescence, OD600, single point. E. coli WT GFP vs humanized-ribosome RFP mutants, 24 h; stronger effect = lower value; DMSO median 0, no signal -100. GFP signal change (wild-type ribosome), % (concentration not given with the values). 1.6% of 350,000 active. AID 720706, 2013;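 active = significant combined selectivity score with lowered wild-type GFP, culture density cut under 30%, mutant RFP and density less affected; inactive = any of these conditions unmet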; also: one replicate is shown; some compounds called inactive have numbers as strong as hits
FGF22 binding = binders of human FGF22 protein, primary screen, FGF22 synaptogenesis inhibitor project, biophysical, thermal shift, single point | 1.5% of 340,000 active | recombinant FGF22 thermal shift, SYPRO orange fluorescence; percent of sucrose octasulfate shift, DMSO zero | Fibroblast growth factor 22 (Homo sapiens), Q9HCT0 | calls only at 9.99 µM;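 active = melting point raised past a set limit in the mean and every replicate; three in four hits are not shown here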
Target sequence (Q9HCT0 whole entry, looked up): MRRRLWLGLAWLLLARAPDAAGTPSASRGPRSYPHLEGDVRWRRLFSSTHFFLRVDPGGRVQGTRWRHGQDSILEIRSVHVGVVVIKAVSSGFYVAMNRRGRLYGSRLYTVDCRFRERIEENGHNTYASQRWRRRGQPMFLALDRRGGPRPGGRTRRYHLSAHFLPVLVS
rRNA inh HTS OD600 = further read-out of rRNA inh HTS, marked with its call; OD600 change, %; measured here: OD600 growth;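 optical density of the mix in the first replicate; 0 = DMSO median and -100 = no signal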
rRNA inh HTS RFP = also measured in rRNA inh HTS; calls as there; RFP signal change, %; measured here: RFP humanized mutant strains;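 first replicate; 0 = DMSO median and -100 = no signal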
Active calls of the source: *; i = inactive; & = joins results of further samples.

SMILES	AF4-AF9 inh	rRNA inh HTS	rRNA inh HTS OD600	rRNA inh HTS RFP	FGF22 binding
C[C@H]1CN([C@@H](C)CO)C(=O)c2cccc(NC(=O)NC3CCCCC3)c2O[C@@H]1CN(C)Cc1ccccc1	-0.4	-9	-10	-0.3	i
O=C(Nc1ccc(F)cc1)N[C@@H]1C=C[C@@H](CC(=O)N2CCOCC2)O[C@H]1CO	1.1	-2	-4	1.2	i
C[C@@H]1CN([C@@H](C)CO)C(=O)c2cc(C3=CCCC3)cnc2O[C@@H]1CN(C)C(=O)Nc1ccc(F)cc1	-1.4	2	6	1.7	i
Cc1noc(C)c1S(=O)(=O)N(C)C[C@H]1OCCCC[C@@H](C)Oc2ccc(NC(=O)CCCCCC(=O)Nc3ccccc3N)cc2C(=O)N([C@@H](C)CO)C[C@@H]1C	2.5	-1	1	0.9	i
O=C(NC[C@H]1N[C@H](CO)[C@@H]1c1ccc(-c2ccccc2F)cc1)c1ccccc1	4.2	-13	-49	20	i
CC(=O)N1CCCCN2[C@H](CO)[C@H](c3ccc(-c4cccc(C)c4)cc3)[C@H]2C1	-2.3	-3	-14	1.6	i
CCC(=O)Nc1ccc2c(c1)C(=O)N(C)C[C@H](OC)[C@H](C)CN(Cc1ccccc1F)[C@H](C)CO2	0.0	-2	-1	0.7	i
CCCNC(=O)[C@H]1[C@H](CO)[C@H]2Cn3c(ccc(C4=CCCC4)c3=O)[C@@H]1N2C(=O)C1CC1	-0.3	1	-4	-2.3	i
C[C@@H]1CCCCO[C@H](CN(C)C(=O)CCC(F)(F)F)[C@@H](C)CN([C@H](C)CO)C(=O)c2cc(NC(=O)Cc3ccccc3)ccc2O1	-2.6	0	-1	1.3	i
CC(C)NC(=O)N(C)C[C@@H]1OCCCC[C@@H](C)Oc2ccc(NC(=O)Nc3ccc(F)cc3)cc2C(=O)N([C@H](C)CO)C[C@H]1C	0.7	-2	-5	4.7	i
NC(=S)NN=C1c2ccccc2-c2cc(Br)ccc21	-2.1	-49	-70	-15	i
O=C(Nc1ccc2c(c1)[C@H]1C[C@@H](CC(=O)N3CCOCC3)O[C@H](CO)[C@H]1O2)c1cccnc1	-1.4	-1	-17	-1.4	i
CN(C)CC(=O)N[C@H]1CC[C@H](CCn2cc(C3CCCCC3)nn2)O[C@@H]1CO	-3.6	-3	7	0.7	i
O=C(c1ccccc1)C12COc3ccccc3C1ON=C2c1ccccc1 (centres undefined)	-1.6	1	7	-0.5	i
O=C(CN1C(=O)c2ccccc2C1=O)NC1CCS(=O)(=O)C1 (centres undefined)	2.5	6	25	0.1	i
C[C@H]1CN([C@@H](C)CO)C(=O)c2cc(NS(=O)(=O)c3cccs3)ccc2O[C@H]1CN(C)CC1CC1	0.4	5	11	0.0	i
COc1ccc(CNC(=O)N(C)C[C@H]2OCc3ccccc3-c3c(n(C)c4ccccc34)C(=O)N([C@@H](C)CO)C[C@H]2C)cc1	1.4	0	2	0.8	i
CCOc1ccc(CCN2C(=O)C(=O)N([C@@H](CC(C)C)CN3CCC[C@H]3CN3C(=O)C(=O)NC[C@@H]3Cc3ccccc3)C[C@@H]2Cc2ccccc2)cc1	5.2	-1	-12	6.7	i
CN1C(=O)c2cc(NC(=O)c3ccc(F)c(F)c3)ccc2OC[C@@H]2O[C@H](CC(=O)N[C@@H]3CCN(Cc4ccccc4)C3)CC[C@H]21	8.7	4	11	-1.1	i
O=C(Nc1ccc(Cl)cc1)c1csc([C@H]2C[C@H](O)[C@@H](CO)O2)n1	-1.8	-3	9	-5.9	i
C[C@H](CO)N1C[C@H](C)[C@H](CN(C)S(=O)(=O)c2cn(C)cn2)Oc2ccc(NC(=O)Nc3ccc(F)cc3)cc2C1=O	-2.9	2	9	-0.7	i
CN(C)C(=O)C[C@H]1CC[C@H](NC(=O)C2CCC2)[C@@H](CO)O1	-0.9	3	3	0.5	i
CC(=O)N1[C@@H]2c3ccc(-c4cccnc4)c(=O)n3C[C@H]1[C@H](CO)[C@H]2C(=O)N1CCc2ccccc2C1	-1.3	0	4	-1.1	i
C[C@H]1CN([C@@H](C)CO)C(=O)c2cc(NC(=O)Cc3ccccc3)ccc2O[C@H]1CN(C)C(=O)Nc1ccccc1	-1.2	0	-1	0.0	i
COc1cc(/C=C/C(=O)Nc2ccc(S(=O)(=O)Nc3onc(C)c3C)cc2)cc(OC)c1OC	-0.3	1	5	1.1	i
N#C[C@@H]1[C@H](c2ccc(-c3cccc(F)c3)cc2)[C@H](CO)N1C(=O)c1cccnc1	1.3	4	2	-3.8	i
Cc1cc(-c2nc3ccccc3s2)ccc1N	0.8	-40	-48	-4.0	i
C[C@@H]1CN([C@H](C)CO)C(=O)Cc2cc(NC(=O)C3CC3)ccc2O[C@@H]1CN(C)Cc1ccc(Oc2ccccc2)cc1	1.2	-12	-43	15	i
CCCCn1nnnc1C(c1cc2ccccc2o1)N(C)CCc1ccccc1 (centres undefined)	-7.3	18	12	3.1	i
Nc1nc(N)nc(-c2cccc(Br)c2)n1	-0.9	-6	3	-4.4	i
COc1ccccc1NC(=O)N(C)C[C@@H]1Oc2ncc(Br)cc2C(=O)N([C@H](C)CO)C[C@@H]1C	-16&-1.2&-2.0	1&-2	0&2	6.1&-0.6	i
COc1ccc(OCCN2CCC(C(=O)NC(c3ccc(Cl)cc3)c3cnccn3)CC2)cc1 (centres undefined)	0.8	5	7	7.0	i
CC(C)(C)n1nnnc1C(c1cc2ccccc2o1)N1CCOCC1 (centres undefined)	-1.2	12	5	1.8	i
CCCNC(=O)C[C@H]1CC[C@@H]2[C@H](COc3ccc(NC(=O)c4ccccc4)cc3C(=O)N2C)O1	-0.1	-1	6	-2.0	i
CO[C@@H]1CN(C)C(=O)c2cc(NC(=O)C3CC3)ccc2OC[C@H](C)N(Cc2ccc(F)cc2)C[C@H]1C	0.5	-4	-30	3.0	i
O=C(Nc1ccccc1F)N1C[C@H]2[C@@H](c3ccccc31)[C@H](CO)N2C(=O)c1ccc(F)cc1	-1.5	-1	1	0.0	i
COCC(=O)N1C[C@@H]2[C@H](c3ccccc31)[C@H](CO)N2Cc1ccccc1F	-17	1	6	-0.3	i
C[C@H]1CN([C@@H](C)CO)C(=O)Cc2cc(NC(=O)Cc3ccccc3)ccc2O[C@@H]1CN(C)C(=O)Nc1ccc(C(F)(F)F)cc1	-1.2	1	-3	-0.2	i
CC(C)NC(=O)N(C)C[C@@H]1Oc2ccc(NC(=O)Nc3ccc4c(c3)OCO4)cc2C(=O)N([C@H](C)CO)C[C@@H]1C	-1.4	-5	-9	-3.6	i
COc1cccc(S(=O)(=O)N(C)C[C@@H]2Oc3ncc(C#CCN(C)C)cc3C(=O)N([C@@H](C)CO)C[C@@H]2C)c1	-1.5	3	10	-0.2	i
C[C@H](CO)N1C[C@H](C)[C@H](CN(C)C(=O)Nc2ccc(C(F)(F)F)cc2)Oc2c(NC(=O)c3nc4ccccc4s3)cccc2C1=O	2.1	-3	2	-2.0	i
COc1ccc(-c2cc3nc(NCCCN(C)C)n(C)c(=O)c3s2)cc1OC	4.6	7	12	-1.3	i
COc1ccc(CN2C[C@H](O)COC[C@H]3O[C@H](CC(=O)NCCN4CCCC4)CC[C@@H]32)cc1	9.8	-4	-3	-1.4	i
COc1ccc(CN(C)C[C@@H]2OCCCC[C@@H](C)Oc3ccc(NC(=O)c4ccncc4)cc3C(=O)N([C@H](C)CO)C[C@@H]2C)cc1	-2.1	5	3	-2.2	i
COc1cc(/C=C/c2cc(C(F)(F)F)[nH]c(=O)n2)cc(OC)c1OC	-0.8	-16	-15	-5.4	i

In another format: results already given
Structure | AF4-AF9 inh | rRNA inh HTS | rRNA inh HTS OD600 | rRNA inh HTS RFP | FGF22 binding
CCCCn1nnnc1C(c1cc2ccccc2o1)N(C)CCc1ccccc1 (centres undefined) | -7.3 | 18 | 12 | 3.1 | i
Nc1nc(N)nc(-c2cccc(Br)c2)n1 | -0.9 | -6 | 3 | -4.4 | i
COc1ccccc1NC(=O)N(C)C[C@@H]1Oc2ncc(Br)cc2C(=O)N([C@H](C)CO)C[C@@H]1C | -16&-1.2&-2.0 | 1&-2 | 0&2 | 6.1&-0.6 | i
COc1ccc(OCCN2CCC(C(=O)NC(c3ccc(Cl)cc3)c3cnccn3)CC2)cc1 (centres undefined) | 0.8 | 5 | 7 | 7.0 | i
CC(C)(C)n1nnnc1C(c1cc2ccccc2o1)N1CCOCC1 (centres undefined) | -1.2 | 12 | 5 | 1.8 | i
CCCNC(=O)C[C@H]1CC[C@@H]2[C@H](COc3ccc(NC(=O)c4ccccc4)cc3C(=O)N2C)O1 | -0.1 | -1 | 6 | -2.0 | i
CO[C@@H]1CN(C)C(=O)c2cc(NC(=O)C3CC3)ccc2OC[C@H](C)N(Cc2ccc(F)cc2)C[C@H]1C | 0.5 | -4 | -30 | 3.0 | i
O=C(Nc1ccccc1F)N1C[C@H]2[C@@H](c3ccccc31)[C@H](CO)N2C(=O)c1ccc(F)cc1 | -1.5 | -1 | 1 | 0.0 | i
COCC(=O)N1C[C@@H]2[C@H](c3ccccc31)[C@H](CO)N2Cc1ccccc1F | -17 | 1 | 6 | -0.3 | i
C[C@H]1CN([C@@H](C)CO)C(=O)Cc2cc(NC(=O)Cc3ccccc3)ccc2O[C@@H]1CN(C)C(=O)Nc1ccc(C(F)(F)F)cc1 | -1.2 | 1 | -3 | -0.2 | i
CC(C)NC(=O)N(C)C[C@@H]1Oc2ccc(NC(=O)Nc3ccc4c(c3)OCO4)cc2C(=O)N([C@H](C)CO)C[C@@H]1C | -1.4 | -5 | -9 | -3.6 | i
COc1cccc(S(=O)(=O)N(C)C[C@@H]2Oc3ncc(C#CCN(C)C)cc3C(=O)N([C@@H](C)CO)C[C@@H]2C)c1 | -1.5 | 3 | 10 | -0.2 | i
C[C@H](CO)N1C[C@H](C)[C@H](CN(C)C(=O)Nc2ccc(C(F)(F)F)cc2)Oc2c(NC(=O)c3nc4ccccc4s3)cccc2C1=O | 2.1 | -3 | 2 | -2.0 | i
COc1ccc(-c2cc3nc(NCCCN(C)C)n(C)c(=O)c3s2)cc1OC | 4.6 | 7 | 12 | -1.3 | i

(cont.)
SMILES	AF4-AF9 inh	rRNA inh HTS	rRNA inh HTS OD600	rRNA inh HTS RFP	FGF22 binding
COc1ccc2c3c([nH]c2c1)[C@H](CO)N(C(=O)CN(C)C)CC31CCN(CC2CCCC2)CC1	4.2	6	13	-5.8	i
CO[C@@H]1CN(C)C(=O)c2cc(NS(=O)(=O)CC(F)(F)F)ccc2OC[C@H](C)N(Cc2nccs2)C[C@@H]1C	-20	0	1	-0.2	i
O=C(Nc1cc(F)ccc1F)N[C@H]1CC[C@H](CCn2cc(C3CCCCC3)nn2)O[C@@H]1CO	-1.4	0	5	-1.5	i
CC(C)NC(=O)N1C[C@H]2[C@@H](c3ccccc31)[C@H](CO)N2C(=O)Nc1cccc(F)c1	-3.9	0	7	0.7	i
CCOC(=O)C1=CCN(S(=O)(=O)c2ccc(C)cc2)[C@H]1c1ccccc1Cl	-1.2	-29*	-15*	2.3*	i
CCCCNC(=O)c1nc(C2CCN(S(=O)(=O)c3cccc(C(F)(F)F)c3)CC2)oc1-c1cccc(C(F)(F)F)c1	4.4	-1	6	-4.7	i
C[C@H]1CN([C@@H](C)CO)C(=O)CCCn2nncc2CO[C@@H]1CN(C)C(=O)Nc1ccnc(N2CCOCC2)c1	-0.8&-5.6	8&1	17&-1	-1.3&0.6	i
C/C=C/c1cnc2c(c1)C(=O)N([C@@H](C)CO)C[C@@H](C)[C@H](CN(C)C(=O)NC1CCCCC1)O2	-4.2	1	11	-4.0	i
C[C@@H]1CN([C@H](C)CO)C(=O)c2cc(C#CCN(C)C)cnc2O[C@H]1CN(C)Cc1cccc(F)c1	7.8	5	9	-3.7	i
C[C@@H]1CN([C@H](C)CO)C(=O)Cc2cc(NS(=O)(=O)c3ccccc3)ccc2O[C@@H]1CN(C)C(=O)NC1CCCCC1	-2.5	-2	2	-1.8	i
COc1ccc(NC(=O)N(C)C[C@@H]2Oc3ncc(-c4ccc(F)cc4)cc3C(=O)N([C@H](C)CO)C[C@@H]2C)cc1	1.4	-9	-10	-2.7	i

Some of the compounds tested; the hit share may differ from the screen's.
